PKD1 kinase inh = inhibitors of human PKD1 kinase. PKD1 kinase fluorescence polarization assay. inhibition, %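 (about 10 µM by stock and volumes)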. Q15139. 200,000 compounds, 0.056% hits;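 active means inhibition of 50% or more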;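 further: controls were vehicle for no effect and a reference inhibitor for full effect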
GALR2 ag = activates the human galanin receptor 2; GALR2-expressing cells, agonist activation read-out; O43603; AID 803; 140,000 compounds, 0.48% hits; activation, %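 (tested at 5 µM)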;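 active means above mean plus 3 SD of all compounds, about 5% in these data, not always enough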;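 further: 0% = vehicle buffer wells and 100% = reference agonist at full effect; tested in CHO reporter cells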
Target sequence (O43603 whole entry, looked up): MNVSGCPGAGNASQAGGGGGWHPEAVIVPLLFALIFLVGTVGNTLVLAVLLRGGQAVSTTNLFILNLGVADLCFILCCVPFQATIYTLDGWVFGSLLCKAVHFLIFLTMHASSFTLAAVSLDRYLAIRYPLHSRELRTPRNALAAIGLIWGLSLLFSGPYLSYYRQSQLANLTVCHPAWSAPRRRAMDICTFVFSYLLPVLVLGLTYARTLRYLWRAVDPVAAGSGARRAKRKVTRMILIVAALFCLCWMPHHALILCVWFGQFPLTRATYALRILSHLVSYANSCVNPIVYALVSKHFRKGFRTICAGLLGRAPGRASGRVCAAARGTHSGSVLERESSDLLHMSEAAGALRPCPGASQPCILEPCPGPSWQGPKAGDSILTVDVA
RGS16-Gao HTS = RGS16-Galphao interaction regulator (human). bead-based flow cytometry RGS16-Galphao binding, fluorescence; actives lie on both sides. O15492+P09471. binding response (% of control), % at 10 µM. 220,000 compounds, 0.38% hits. AID 1441;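 active means below 25% or above 175%, edge rows of some plates excepted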;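 further: Galphao activated by GDP with aluminum fluoride before binding; 100% = wells without compound and 0% = beads without RGS; some results beyond the cut were filed as inactive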
Target sequence (O15492 whole entry, looked up): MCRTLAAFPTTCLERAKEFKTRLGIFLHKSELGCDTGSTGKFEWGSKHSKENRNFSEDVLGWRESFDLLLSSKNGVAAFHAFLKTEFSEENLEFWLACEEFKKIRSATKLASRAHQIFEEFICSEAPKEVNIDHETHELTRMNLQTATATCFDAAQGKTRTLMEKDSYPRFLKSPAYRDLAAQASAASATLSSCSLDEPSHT
Target sequence (P09471 whole entry, looked up): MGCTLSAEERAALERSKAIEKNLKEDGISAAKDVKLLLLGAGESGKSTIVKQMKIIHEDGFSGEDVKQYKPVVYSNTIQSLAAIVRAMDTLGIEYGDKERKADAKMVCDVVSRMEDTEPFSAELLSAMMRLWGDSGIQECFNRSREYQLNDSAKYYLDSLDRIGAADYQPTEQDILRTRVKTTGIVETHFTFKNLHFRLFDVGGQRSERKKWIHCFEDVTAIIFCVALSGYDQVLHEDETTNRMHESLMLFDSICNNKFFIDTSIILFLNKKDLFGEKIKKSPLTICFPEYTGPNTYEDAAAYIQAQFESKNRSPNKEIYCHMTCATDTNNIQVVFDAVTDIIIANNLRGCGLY
Insulin prom inh = TRM-6 insulin promoter activity inhibition. inhibition, % at 2 µM. TRM-6 cells (human fetal islet line), insulin promoter-eGFP reporter, imaging; reporter expression induced with tamoxifen. AID 1273. 130,000 compounds, 0.9% hits;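 active means inhibition above the mean plus 3 SD, with well images judged a real hit on visual review, cut at about 60% in these data, passing the limit was not always enough; inconclusive means inhibition over the cutoff but images rejected on review; inactive means inhibition not above the cutoff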
HSV replic up = increases HSV replication in cells | 220,000 compounds, 0.005% hits | HSV replication augmentation in cells, fold increase | AID 1956 | maximum fold increase;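 active means peak rise of 1.5-fold or more in the series; inconclusive means self-fluorescent or not available for retest; tested in PC3 cells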;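 further: first round at 10 µM; read as green reporter fluorescence; hits show the peak of a series up to 25 µM; 1 = signal of infected wells without compound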
Insulin prom inh cell count = recorded beside Insulin prom inh, whose call it bears; normalized cell count, %; measured here: cell count, toxicity; reference of the scale not given here;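 cells exposed to compound for 48 h; stained nuclei by imaging scaled within each plate; lower means fewer cells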
HSV replic up primary fold = also measured in HSV replic up; calls as there; fold increase; compound at 10 µM; measured here: primary screen fold increase 10 uM; tested in PC3 cells;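 GFP signal in the first replicate; 1 = infected wells without compound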
The depositor's hits bear a star; i = inactive; ? = inconclusive; / = no result given.

SMILES	PKD1 kinase inh	GALR2 ag	RGS16-Gao HTS	Insulin prom inh	Insulin prom inh cell count	HSV replic up	HSV replic up primary fold
Cc1ccc(Nc2nnc(SCC(=O)Nc3ccc(S(=O)(=O)N4CCOCC4)cc3)s2)cc1	-5	-3.0	104	21	140	i	0.81
O=S(=O)(/N=S1/CC=CCN1S(=O)(=O)c1ccccc1)c1ccccc1 (stereo not given)	-4	-0.3	51	-84	81	i	0.86
Nc1nc2n(n1)C(c1ccco1)CC(c1ccc(F)cc1)N2 (stereo not given)	-5	-0.9	106	/	/	i	1.2
Cc1ccc(/C=N\NC(=O)Cn2nnc3ccccc32)o1	-7	-2.2	105	12	58	i	0.93
CCc1cc(=O)oc2c(CN3CCN(C)CC3)c(O)c(Cl)cc12	4	12*	101	30	104	i	1.1
O=C(Nc1cccc(OCC(=O)N2CCOCC2)c1)C1CCCCC1	-1	-1.9	121	39	93	i	1.1
CCc1ccc(S(=O)(=O)NCc2csc(C)n2)s1	-10	-1.4	76	27	40	i	1
CCc1cc2cc(C(=O)N3CCN(c4ccccc4)CC3)sc2s1	-5	-0.7	100	-13	153	i	0.99
CSc1nc(-c2ccccc2)nc(NC(=O)C(C)C)c1C(C)=O	-1	/	63	-83	53	i	0.98
Cc1cc(C(=O)CSc2nnc(-c3ccc(Cl)cc3)n2C)c(C)n1CC1CCCO1 (stereo not given)	-10	-1.5	96	31	76	i	0.96
COC(=O)c1ccc(/C=N/NC(=O)C(=O)NCc2ccccc2)cc1	-8	/	139	45	155	i	0.96
CCCCCC(=O)N/N=C/c1ccccc1[N+](=O)[O-]	0	/	97	35	143	i	0.97
CSc1cccc(NC(=S)N2CCCN(Cc3ccccc3F)C2)c1	2	/	94	12	83	i	0.86
CNc1cc(Cl)nc(SC)n1	2	/	103	-45	145	i	0.94
CS(=O)(=O)N1CCN(c2ccc(C(=O)NC34CC5CC(CC(C5)C3)C4)cc2[N+](=O)[O-])CC1	-8	-1.2	103	/	/	i	0.83
CCOC(=O)c1c(C)c(C(=O)NCCOC)c(C)n1CC	-9	-2.2	115	/	/	i	0.98
CCOCC(=O)N1CCCC(C(=O)OCC)C1 (stereo not given)	-4	-1.0	96	-8	110	i	0.79
CC1(NC(=S)NCCCCCCNC(=S)NC2(C)CCS(=O)(=O)C2)CCS(=O)(=O)C1 (stereo not given)	/	/	90	/	/	i	0.95
Cc1ccc(OCC(=O)Nc2ccc(-c3nc4ncccc4o3)cc2)c(C)c1	-3	-2.5	93	47	133	i	0.88
Cc1ccc(-c2cc3c(N=O)c4ccccc4c-3n[nH]2)cc1	1	/	97	-8	105	i	0.92
O=c1c2ccccc2n(Cc2ccccc2F)c(=O)n1Cc1ccccc1F	-5	1.2	98	-49	74	i	0.95
COc1cc2nc(C(C)(C)C)oc(=O)c2cc1OC	/	/	98	/	/	i	1.1
COc1ccc(O[C@H]2C=C[C@@H](c3ccccc3)O[C@@H]2COC(=O)CC/C(C)=N/O[C@@H](C)c2cc(-c3c(C)cc(C)cc3C)no2)cc1	-8	-0.8	101	33	83	/	/
Cc1ccc2cc(-c3noc(C(C)(C)C)n3)c(=O)[nH]c2c1	-14	-3.0	105	/	/	i	0.81
CCCC(=O)Nc1nc(-c2ccccc2)c(CC)s1	-6	/	104	/	/	i	0.84
CCO[C@H]1OC(C(=O)N2CCN(Cc3ccc4c(c3)OCO4)CC2)=C[C@@H](c2cn(C(C)=O)c3ccccc23)[C@@H]1CCCO	0	/	100	/	/	/	/
CCOc1cc(C#N)c(NC(=O)Cn2nnc3ccccc32)cc1OCC	-2	0.3	58	/	/	i	0.83
CCOC(=O)N1CCN(C(=O)CSc2nnc(-c3cccc(OC)c3)o2)CC1	-6	0.2	106	-2	106	i	0.82
COc1cc(/C=C2/SC(=S)N(C)C2=O)ccc1OC(=O)c1ccco1	-9	-0.4	106	/	/	?	/
CC(C)(C)NC(=O)NC(=O)CSc1cccc(C(F)(F)F)c1	4	/	115	55	171	i	0.92
Cc1csc(SCc2nnc(-c3ccccc3Br)o2)n1	-4	-3.2	106	/	/	i	1.1
O=C(CN1CCNCC1)Nc1ccccc1Cl	-6	-2.7	96	/	/	i	1.1
Oc1nc(Nc2ccc(Cl)cc2Cl)sc1/C=C1\C=Nc2ccccc21	-6	-1.3	80	/	/	i	1
CCCN(CCC)S(=O)(=O)c1ccc(C(=O)Nc2ccc(OCC(=O)N3CCOCC3)cc2)cc1	-10	0.6	100	-23	71	i	0.74
CC(=O)c1sc(Nc2ccc(C)cc2)nc1C	3	/	106	-49	143	i	1.1
COc1ccc(-c2ccc(C(=S)N3CCN(C(C)=O)CC3)o2)cc1	-4	-1.7	83	0	89	/	/
COc1ccccc1NC(=O)CSc1nnc(-c2ccoc2C)n1CCc1ccccc1	2	-0.3	-29	-19	83	i	0.88
CCOc1cc(NC(=S)NCCCN2CCOCC2)c(OCC)cc1NC(=O)c1cccc(C)c1	-6	/	107	38	77	i	1
CCOCCn1c(SCc2ccc(F)cc2)nc2c1c(=O)[nH]c(=O)n2C	5	-4.9	99	/	/	i	0.72
O=C(NCCc1cccc(Cl)c1)c1ccc(Cl)c([N+](=O)[O-])c1	-1	-1.8	100	/	/	i	0.94

Profiles, quoted from the list. Screens in order: PKD1 kinase inh, GALR2 ag, RGS16-Gao HTS, Insulin prom inh, Insulin prom inh cell count, HSV replic up, HSV replic up primary fold
Cc1csc(SCc2nnc(-c3ccccc3Br)o2)n1 is listed with -4, -3.2, 106, /, /, i, 1.1
O=C(NCCc1cccc(Cl)c1)c1ccc(Cl)c([N+](=O)[O-])c1 is listed with -1, -1.8, 100, /, /, i, 0.94

More compounds
SMILES	PKD1 kinase inh	GALR2 ag	RGS16-Gao HTS	Insulin prom inh	Insulin prom inh cell count	HSV replic up	HSV replic up primary fold
O=C(O)CCSCCC(=O)O	-8	-1.1	108	-44	101	i	1
CCOC(=O)CNc1ncc([N+](=O)[O-])cc1C#N	1	-0.6	116	23	74	i	1.1
O=C(NCc1ccc(F)cc1)C1CCN(S(=O)(=O)N2CCOCC2)CC1	1	/	110	/	/	i	0.95
O=C(CSc1nc(-c2ccccc2)cc(C(F)(F)F)n1)NCCN1CCOCC1	10	-1.4	154	-159	69	i	0.99
COc1ccc(N2CCN(C(=O)Cc3ccc(Br)cc3)CC2)cc1	/	/	96	/	/	i	1
CCOC(=O)c1ccc(OCc2c(C)noc2C)cc1	0	-0.5	109	-50	143	i	0.89
COc1ccccc1-c1nnc2sc(-c3cc4ccccc4o3)nn12	13	-1.0	95	/	/	/	/
COC(=O)c1c(C)oc(C)c1S(=O)(=O)NC(c1ccccc1)c1ccccc1	/	/	98	/	/	i	1.1
Cc1ccccc1Nc1nc(N)nc(CN(C)c2ccccc2)n1	8	-1.8	100	-4	116	i	0.76
Fc1ccc(C2=NN(c3ccccc3)C(c3ccco3)C2)cc1 (stereo not given)	-6	/	101	/	/	i	1.1

Looked up by structure from the entries so far (six):
SMILES	PKD1 kinase inh	GALR2 ag	RGS16-Gao HTS	Insulin prom inh	Insulin prom inh cell count	HSV replic up	HSV replic up primary fold
O=C(CSc1nc(-c2ccccc2)cc(C(F)(F)F)n1)NCCN1CCOCC1	10	-1.4	154	-159	69	i	0.99
O=C(O)CCSCCC(=O)O	-8	-1.1	108	-44	101	i	1
COc1ccccc1-c1nnc2sc(-c3cc4ccccc4o3)nn12	13	-1.0	95	/	/	/	/
Fc1ccc(C2=NN(c3ccccc3)C(c3ccco3)C2)cc1 (stereo not given)	-6	/	101	/	/	i	1.1
CCOC(=O)CNc1ncc([N+](=O)[O-])cc1C#N	1	-0.6	116	23	74	i	1.1
COC(=O)c1c(C)oc(C)c1S(=O)(=O)NC(c1ccccc1)c1ccccc1	/	/	98	/	/	i	1.1

The results go on.
SMILES	PKD1 kinase inh	GALR2 ag	RGS16-Gao HTS	Insulin prom inh	Insulin prom inh cell count	HSV replic up	HSV replic up primary fold
Cc1cccc(C(=O)NC(NC(=S)Nc2ccc(S(N)(=O)=O)cc2)C(Cl)(Cl)Cl)c1 (stereo not given)	-3	-1.1	29	22	71	i	0.89
COC(=O)C1=C(C(=O)OC)[C@@H]2N(C)c3ccc(OC)cc3[C@@]23C[C@@H](C(=O)OC)N(S(=O)(=O)c2ccc([N+](=O)[O-])cc2)C3=N1	/	/	96	/	/	i	0.98
CCCC(C(=O)c1ccccc1)n1cncn1 (stereo not given)	9	-2.6	-9.0*	/	/	i	0.88
Cc1ccc(-c2nnc(N3CCN(C(=O)COc4ccccc4)CC3)c3ccccc23)cc1	4	-1.1	104	-25	84	i	0.75
COc1ccc2c(c1)nc(N)n2Cc1ccccc1	-11	-0.9	130	/	/	/	/
CCS(=O)(=O)N1CCN(C(=O)c2cccnc2)CC1	-7	-1.2	104	32	62	i	0.93
CC(=O)Nc1ccc(S(=O)(=O)Nn2cnnc2)cc1	2	/	101	-23	70	i	1.1
Cn1c(N)c(C#N)c2c(c1=S)COC(C)(C)C2	5	-0.1	97	4	108	/	/
CCOc1cc2c(cc1OCC)C(c1ccc(OC)cc1)N(c1ccccc1)C(=O)C2 (stereo not given)	-4	1.3	94	/	/	i	1
O=C(COc1ccc(/C=N/NC(=O)c2ccccc2O)cc1)Nc1ccccc1	1	/	111	/	/	i	0.87
Cc1ccc(SC2=C(Sc3ccc(C)cc3)C(=O)c3ccccc3C2=O)cc1	/	/	68	/	/	i	1.2
O=C(CN(c1ccccc1)S(=O)(=O)c1ccccc1[N+](=O)[O-])NN=C1CCCCCCC1	5	-3.2	97	/	/	i	1
Cn1c(SCc2ccc(C#N)cc2Cl)nc2ccccc21	3	-2.0	100	22	55	i	0.91
CC1CCN(CCCCOc2ccc(Br)cc2)CC1	2	-0.6	94	15	117	i	0.96
Nc1nc(COc2ccccc2C=O)nc(Nc2ccccc2)n1	/	/	96	/	/	i	0.54
O=C(Cn1c2c(c(-c3ccccc3Cl)cc1=O)CCC2)NCC1CCCO1 (stereo not given)	/	/	97	/	/	i	0.98
CCn1c(=NC(=O)CSCC(=O)Nc2nccs2)sc2ccccc21	-3	-2.2	104	11	96	i	1
Cc1occc1C(=O)NNC(=O)COc1ccc(Br)cc1Br	4	-0.4	98	43	63	i	0.95
CNC(=S)Nc1ccc(Br)cc1	-6	-0.1	101	-5	118	i	0.98
COc1ccc(-n2nnnc2SCC#CCO)cc1	3	-3.9	99	/	/	i	1.1

Printed as active in GALR2 ag, among the entries above:
| SMILES | PKD1 kinase inh | GALR2 ag | RGS16-Gao HTS | HSV replic up | HSV replic up primary fold |
| --- | --- | --- | --- | --- | --- |
| CCc1cc(=O)oc2c(CN3CCN(C)CC3)c(O)c(Cl)cc12 | 4 | 12* | 101 | i | 1.1 |

Quoted from the listing.
O=C(CN(c1ccccc1)S(=O)(=O)c1ccccc1[N+](=O)[O-])NN=C1CCCCCCC1 @ GALR2 ag = -3.2
COc1ccc(-n2nnnc2SCC#CCO)cc1 @ RGS16-Gao HTS = 99

Screens: PubChem, several laboratories

Random draw from the library, and some 1.2% of all compounds hit somewhere here.
